Anthrax LT inh: inhibitors of anthrax lethal toxin internalization; Cells, anthrax lethal toxin internalization, FRET ratio (460/530); Potency, µM (titrated, usually from 40 µM), for the others: at the highest dose activity change, negative = inhibition, usual class: inhibitors; actives 0.67% (n = 70,000); active = well fitted falling ratio curve with the 530 nm signal flat; inconclusive = other ratio curves, or a change in one channel alone; inactive = flat curves in the ratio and both channels; the % refers to the ratio; also: % is scaled to controls: 0 for no effect and ±100 for the full control effect; nearly all actives have a fitted effect of over 50% in size; tested in ME-180 cells; beta-lactamase reporter
SmPrx2 inh: inhibitors of Schistosoma mansoni peroxiredoxin 2; actives 0.07% (n = 65,000); Potency, µM; S. mansoni Prx2 activity coupled to TGR/GSH (TGR is thioredoxin glutathione reductase), NADPH fluorescence loss, qHTS; some inactives read as strong as hits; active means full or partial inhibition curve with a strong effect at the top dose; inconclusive means weaker partial or single-point curve; inactive means no accepted curve; also: series up to 57 µM; many of its hits are not listed in these tables
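Purified S. mansoni TGR and Prx2 in pH 7.4 phosphate buffer with EDTA and Tween-20 were preincubated with compounds for 15 min. Further NADPH/GSH was added, then a 2.5 mM H2O2 aliquot initiated turnover, followed kinetically by NADPH fluorescence.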
* marks the source's active call; other numbers are inactive results; ? = inconclusive; · = not tested or not shown; & = joins results of further samples; [ ] = dose if it differs, or a comment. Potency is read from the fitted curve at half-maximal effect.

#1 CCCCOc1cc(C(=O)OCCN(CC)CC)ccc1N
#2 CN[C@@H]1[C@H](O)[C@H](NC)[C@@H]2O[C@]3(O)C(=O)C[C@@H](C)O[C@H]3O[C@@H]2[C@H]1O
#3 Cn1ccc2cc3c(cc21)CCN3C(=O)Nc1cccnc1
#4 C=C1c2cccc(O)c2C(O)=C2C(=O)[C@@]3(O)C(O)=C(C(N)=O)C(=O)[C@@H](N(C)C)[C@@H]3[C@@H](O)[C@H]12
#5 Cc1cc(=O)oc2cc(O)ccc12
#6 C=Cc1ccccc1

| assay / entry | 1 | 2 | 3 | 4 | 5 | 6 |
| --- | --- | --- | --- | --- | --- | --- |
| Anthrax LT inh | ? | -7.5% | -6.2%&2.9% | -7.4%[3.58 µM] | ? | -6.6% |
| SmPrx2 inh | >57 | >57 | >57&>57 | >57 | >57 | · |

#7 COc1cc(N)c(Cl)cc1C(=O)N[C@H]1CCN(CCCOc2ccc(F)cc2)C[C@H]1OC
#8 COc1cc2nc(N3CCN(C(=O)[C@@H]4COc5ccccc5O4)CC3)nc(N)c2cc1OC
#9 CN(C)C/C=C(\c1ccc(Br)cc1)c1cccnc1
#10 Nc1ncnc2c1c(-c1ccc(Oc3ccccc3)cc1)cn2C1CCCC1
#11 CC[C@@]12CCCN3CCc4c(n(c5ccccc45)[C@](O)(C(=O)OC)C1)[C@H]32
#12 CCc1ccccc1OC[C@@H](O)CN[C@H]1CCCc2ccccc21

| assay / entry | 7 | 8 | 9 | 10 | 11 | 12 |
| --- | --- | --- | --- | --- | --- | --- |
| Anthrax LT inh | -14.9%[3.58 µM] | ? | -8.3%[8 µM] | 15.8µM* | -28.1% | ? |
| SmPrx2 inh | >57 | >57 | >57&>57&>57&>57 | >57 | >57&>57&>57 | >57 |

#13 Cc1c(C(=O)O)c(O)cc2c1C(=O)c1c(O)c([C@@H]3O[C@H](CO)[C@@H](O)[C@H](O)[C@@H]3O)c(O)c(O)c1C2=O
#14 CN(C(=O)c1c(O)c2ccccc2n(C)c1=O)c1ccccc1
#15 O=C1c2c(O)ccc(O)c2C(=O)c2c(NCCNCCO)ccc(NCCNCCO)c21
#16 CCCCN(CCCC)CCCOC(=O)c1ccc(N)cc1
#17 CCCCCCCCCCCCCCC[C@@H](O)[C@@H](N)CO
#18 Cc1ccsc1/C=C\C1=NCCCN1C

| assay / entry | 13 | 14 | 15 | 16 | 17 | 18 |
| --- | --- | --- | --- | --- | --- | --- |
| Anthrax LT inh | -8.6% | -12.0% | ? | -2.3%[3.58 µM] | ? | 0.3%[3.58 µM] |
| SmPrx2 inh | >57 | >57 | >57&>57 | >57 | >57 | >57 |

#19 COC(=O)c1ccccc1O
#20 CC[C@]1(O)C[C@H]2CN(CCc3c([nH]c4ccccc34)[C@](C(=O)OC)(c3cc4c(cc3OC)N(C)[C@@H]3[C@](O)(C(=O)OC)[C@H](OC(C)=O)[C@]5(CC)C=CCN6CC[C@]43[C@@H]65)C2)C1
#21 CCN(CC)CCOc1ccc(Cc2ccccc2)cc1
#22 C[C@H](N)C1CCC(C(=O)Nc2ccncc2)CC1 (stereo not given in full)
#23 CCCOc1ccc(C(=O)OCCN(CC)CC)cc1N
#24 C[C@@]12CC[C@H]3[C@@H](CCC4=CC(=O)CC[C@]43C)[C@H]1CC[C@H]2C(=O)CO

| assay / entry | 19 | 20 | 21 | 22 | 23 | 24 |
| --- | --- | --- | --- | --- | --- | --- |
| Anthrax LT inh | -5.9% | ? | 25.1µM* | 6.0% | ? | ? |
| SmPrx2 inh | · | >57 | >57 | >57 | >57 | >57 |

#25 Cc1onc(-c2ccccc2Cl)c1C(=O)N[C@H]1C(=O)N2[C@H]1SC(C)(C)[C@H]2C(=O)O
#26 Cc1scc2c1N(C(=O)CN1CCN(C)CC1)c1ccccc1NC2=O
#27 Nc1ncnc2nc[nH]c12.Nc1ncnc2nc[nH]c12.[Cl][Pt]([Cl])([Cl])[Cl]
#28 COc1ccc(C(=O)c2ccccc2)c(O)c1
#29 Cc1cc(Cn2cnc3c2C[C@@H](C(=O)O)N(C(=O)C(c2ccccc2)c2ccccc2)C3)ccc1N(C)C
#30 Nc1c2ccccc2nc2ccccc12
#31 CCc1cccc(CC)c1NC(=O)CN(CC(=O)O)CC(=O)O
#32 CC(C)NNC(=O)c1ccncc1
#33 COc1cc(C=O)ccc1O

| assay / entry | 25 | 26 | 27 | 28 | 29 | 30 | 31 | 32 | 33 |
| --- | --- | --- | --- | --- | --- | --- | --- | --- | --- |
| Anthrax LT inh | 2.0%[3.58 µM] | ? | -13.3%[8 µM] | -16.4% | -10.7% | ? | 1.9%[3.58 µM] | -12.4%[3.58 µM] | -5.8% |
| SmPrx2 inh | >57 | >57&>57&>57 | >57 | >57&>57 | >57 | · | >57 | >57&>57 | · |

Source: PubChem

The list is partial, so the mix of outcomes need not match the whole.
